OX1R antag = human HCRTR1 antagonism | O43613 | CHO/OX1R cells, Fluo-8 calcium fluorescence, orexin A | inhibition, % at 5 µM | actives 0.43% (n = 330,000);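 active = inhibition above its plate's threshold, mean inhibition of all tested compounds on the plate plus 3 SD, cut at about 37% in these data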;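 note: 0% = orexin A challenge wells and 100% = SB-334867-A antagonist wells; not every result past the cut was called active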
Target sequence (O43613 whole entry, looked up): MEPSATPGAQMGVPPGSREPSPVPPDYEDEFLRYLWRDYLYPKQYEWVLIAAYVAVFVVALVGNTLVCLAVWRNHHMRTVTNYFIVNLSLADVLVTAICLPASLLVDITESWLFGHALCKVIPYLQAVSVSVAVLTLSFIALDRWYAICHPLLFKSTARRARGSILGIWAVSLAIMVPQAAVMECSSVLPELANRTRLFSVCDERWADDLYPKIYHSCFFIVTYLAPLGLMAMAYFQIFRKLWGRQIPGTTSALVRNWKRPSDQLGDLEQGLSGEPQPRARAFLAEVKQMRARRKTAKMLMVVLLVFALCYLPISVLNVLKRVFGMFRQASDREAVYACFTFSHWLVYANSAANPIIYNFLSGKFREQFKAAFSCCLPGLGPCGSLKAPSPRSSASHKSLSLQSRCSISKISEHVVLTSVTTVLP
Numbers without * were called inactive.

OX1R antag,mol
-17.1,N#CCSc1nc2c(c(=O)n1Cc1ccccc1)C1(CCCC1)Cc1ccccc1-2
-17.3,CC1(C)Cc2c(c(N3CCOCC3)nc3sc4c(NCC5CCCO5)nnnc4c23)CS1 (centres undefined)
3.7,COc1ccc2cc(OCC(=O)NNC(=O)Nc3ccc(C(C)=O)cc3)ccc2c1
-16.2,Cc1nc2ccc(NC(=O)CS(=O)(=O)c3ccccc3)cc2s1
-16.5,CCC(C)Sc1ccc([C@H]2N[C@@](CC(C)C)(C(=O)OC)[C@H]3C(=O)N(C)C(=O)[C@@H]23)cc1 (some centres undefined)
-3.3,CCOc1ccc(N2CC(C(=O)NCc3ccc(C)n3C)CC2=O)cc1 (centres undefined)
-3.2,O=C(CCN1CCN(CCO)CC1)Nc1ccc(F)c(F)c1
-13.2,O=C(N/C(=C/c1ccco1)C(=O)N1CCOCC1)c1cccs1
-31.6,COc1ccc(N(CC(=O)N/N=C/c2ccc(F)cc2)S(=O)(=O)c2ccccc2)cc1
-3.0,NC(=O)NNC1=Nc2cccc3cccc1c23
-12.7,COc1ccccc1C(=O)COC(=O)CNS(=O)(=O)c1ccc(C)cc1
-8.1,CCOC(=O)c1[nH]c(C)c(C(=O)/C=C/c2ccc(C(=O)O)cc2)c1C
-5.5,Cn1cnnc1SCC(=O)Nc1ccc(F)cc1
5.0,CC(C)[C@@H]1NC(=O)c2cc([N+](=O)[O-])cc(I)c2OCC[C@@H](C(N)=O)NC(=O)[C@H](CCC(=O)O)NC1=O
-26.2,Cc1ccc(C(=O)N2CCCC(N3CCN(c4ccccc4F)CC3)C2)s1 (centres undefined)
0.7,Cc1nn(-c2ccc(F)cc2)c(Cl)c1/C=C/C(=O)OCC(=O)Nc1ccc(F)cc1F
-5.3,Cc1cc(C)c(-c2noc(C(=O)OC(C)(C)C)c2C(=O)OC(C)(C)C)c(C)c1
-4.4,O=C(N1CCOCC1)n1cnc2ccccc21
-2.2,COc1ccccc1N1CCN(S(=O)(=O)c2ccccc2)CC1
-22.5,O=S(=O)(c1ccccc1)N(CC(O)CN1CCCC1)c1ccccc1 (centres undefined)
-19.8,CCCn1c(C2CC(=O)N(c3cc(OC)ccc3OC)C2)nc2ccccc21 (centres undefined)
-37.4,CN(C)c1ccc(NC(=O)CN2C3CCCC2CC(NC(=O)c2ccccc2)C3)cc1 (centres undefined)
-40.3,CC(C)COc1ccc(C(=O)OCC(=O)NCCC2=CCCCC2)cc1
-13.6,NNC(=S)NC1CCCCCCCCCCC1
-20.1,CCCOc1ccc2[nH]c(C(=O)N/N=C/c3cc(OC)c(OC)c(OC)c3)cc2c1

Further compounds
OX1R antag,mol
0.3,CN(C)c1cc[n+](CC(=O)Nc2ccc(Cl)c([N+](=O)[O-])c2)cc1
-16.2,O=c1cnn(Cc2ccc(Cl)c(Cl)c2)c2ccccc12
-27.8,Cc1cccc(N=CC=C2OC(C)(C)C(C)(C)O2)c1
-10.7,COc1ccc(NC(=O)c2ccc(NCCCN3CCOCC3)c([N+](=O)[O-])c2)cc1
-5.1,Cc1cc(Cl)ccc1Nc1ncccc1C(N)=O
-10.2,CSc1nc(NC(C)(C)C)nc(Oc2ccc(=O)[nH]n2)n1
-45.3,CC(C)C(=O)NCCc1nc2ccccc2n1CCc1ccccc1
13.8,O=C(OCc1ccc(-c2ccccc2)cc1)c1cccc(O)c1
-20.4,O=C(Nc1ccc2c(c1)OCO2)c1c[nH]c(=O)n(-c2ccc(F)cc2)c1=O
-21.9,COc1ccc(C(C)=O)cc1CSCCC(=O)O
-14.2,CCc1cccc(NS(=O)(=O)c2cccc3cccnc23)c1
-10.2,N/C(=N\OC(=O)N1CCOCC1)c1ccc(Cl)cc1
-27.0,CC(OC(=O)c1ccc(S(=O)(=O)N(C)c2ccccc2)cc1)C(=O)NCCC1=CCCCC1 (centres undefined)
-20.4,Cc1cc(C)nc(-n2nc(C)cc2NC(=O)COC(=O)CCC(=O)c2cccs2)n1
-27.6,O=C(CN1CCC(C(=O)c2ccc3c(c2)OCCO3)CC1)NC1CCCC1
5.5,O=C(N/N=C/c1ccncc1)c1ccc(-n2cccc2)cc1
-32.4,COc1ccc(/C=N\NC(=O)c2sccc2C)cc1Cn1nc(C)cc1C
-8.6,Cc1ccc(C)c(OCc2cc(C(=O)N3CCN(C(=O)c4ccco4)CC3)no2)c1
-19.0,Cc1ccn(CCC(=O)NC2CCCc3c2cnn3-c2cccc(C)c2C)n1 (centres undefined)
2.2,Cc1c(C(c2ccccc2O)c2c(C)n(C)n(-c3ccccc3)c2=O)c(=O)n(-c2ccccc2)n1C
-2.5,CC1(C)Cc2c(c(-c3ccccc3Cl)[nH]c(=O)c2C#N)CO1
-1.3,COc1ccc(NCc2cccnc2)cc1
-30.2,Cc1cccc(C)c1N(CC(=O)NCc1ccco1)C(=O)CNS(=O)(=O)c1ccc(F)cc1
-3.8,CCn1c(CSc2nc3ccccc3s2)nnc1SCC(N)=O
-13.8,Cc1ccc2c(c1)/C(=C/c1ccccc1F)C(=O)N2

Next compounds follow:
OX1R antag,mol
-10.2,CCSc1n[nH]c(=S)s1
-10.9,Clc1ccc(C2=NOC(c3nnc(-c4ccccc4)o3)C2)cc1 (centres undefined)
-7.6,NS(=O)(=O)c1cnccc1Nc1ccc(Cl)c(Cl)c1
-24.3,CC(Oc1ccccc1)C(=O)Nc1nnc(C2CCCCC2)s1 (centres undefined)
-10.6,N#Cc1ccccc1S(=O)(=O)N1CCN(c2cnccn2)CC1
-5.9,CCOc1ccc2nc(NS(=O)(=O)c3cccs3)sc2c1
5.3,Cc1cc2nc3s/c(=C/c4ccc(-c5ccccc5C(=O)O)o4)c(=O)n3c2cc1C
-19.1,COc1ccc(C(CNC(=O)C(CCSC)NC(=O)c2ccccc2Cl)N2CCOCC2)cc1 (centres undefined)
-17.4,N#CCC(=O)N1CCCCCC1
-10.7,N#C/C(=C\c1ccc(OC(F)F)cc1)C(=O)N1CCCCC1
1.5,CCn1ccc(C(=O)N2CCN(c3ncccn3)CC2)n1
-24.1,CC(C)(C)OC(=O)N1CCC(c2c(C(=O)N3CCN(C(=O)c4ccco4)CC3)cnn2-c2ccc(F)cc2)CC1
-14.2,Cc1ccc(S(=O)(=O)NCC(=O)N(CC(=O)NC2CCCC2)CC2CCCO2)cc1 (centres undefined)
-25.5,COc1ccc(Cc2nnc(SCC(=O)N(C)CC(=O)Nc3ccc(C)cc3)o2)cc1
-20.5,COc1ccccc1/C=C(/C(=O)OCC(=O)N(C)Cc1ccccc1)c1ccccc1
-16.0,O=C(CCN1CCOCC1)Nc1ccc2c(c1)CCC2
-1.1,CCOc1ccc(C(CC(=O)O)NC(=O)CCCOc2ccc(Cl)cc2C)cc1 (centres undefined)
-16.1,O=C(N/N=C/c1ccncc1)c1nc(-c2ccccc2)n2c1CCCCC2
-9.4,Oc1ccc(Br)cc1CNc1nccs1
-15.8,CCOc1cc(C(=O)O/N=C(\N)c2ccccn2)cc(OCC)c1OCC
-4.6,CC(C)c1nc2c(c(=O)n(C)c(=O)n2C)n1C
-10.4,O=C(C1=NN[C@@H]2C(=O)N(c3ccccc3C(F)(F)F)C(=O)[C@H]12)c1ccc2ccccc2n1
4.1,Cc1onc(-c2c(Cl)cccc2Cl)c1C(=O)N1C(C)CCCC1C (centres undefined)
-26.0,Cc1cc2c(ncn2C)c(NS(=O)(=O)c2cc(Cl)ccc2Cl)c1C
-27.0,CCOC(=O)c1nc(NCc2ccccc2C)c2ccccc2n1

The listing continues:
OX1R antag,mol
-12.9,COc1cc2c(cc1OC)CN(Cc1cc(=O)n3cc(C)ccc3n1)CC2
13.3,N#Cc1nc(N2CCOCC2)nc(N2CCOCC2)n1
2.6,Cc1nc2ccccc2cc1OCc1ccc(F)cc1
-20.4,NC(=O)CCN(C1CCCCC1)S(=O)(=O)c1cccc2nsnc12
-23.3,CC(C)CN(C(=O)COC(=O)c1nc(Cl)ccc1Cl)c1c(N)n(Cc2ccccc2)c(=O)[nH]c1=O
-11.6,c1ccc2oc(-c3ccn[nH]3)cc2c1
-39.6,Fc1ccc(N2CCN(c3nc(CN4CCOCC4)nc4scc(-c5ccccc5)c34)CC2)cc1
-17.6,CC(C)=C1C2CCC1C1C(=O)N(NC(=O)COc3ccc(Cl)c(C)c3)C(=O)C21 (centres undefined)
-2.6,CCCNC(=O)Cn1c(=O)n(CC(=O)N2CCCCC2)c(=O)c2sccc21
-18.3,COC(=O)CNC(=O)CNC(=O)c1nn(-c2ccc(OC)c(OC)c2)c(=O)c2ccccc12
0.8,O=C(CCc1ccc(S(=O)(=O)N2CCOCC2)cc1)NCCCN1CCCC1=O
-0.3,Clc1ccc(-n2cccc2)cn1
-8.6,Cc1ccc(NC(=O)Cn2nnc(C(=O)NCc3ccccc3)c2N)cc1C
-20.2,CC(CCc1ccco1)NC(=O)Cn1ncc2c(=O)oc3ccccc3c21 (centres undefined)
-2.2,Cc1cc(C)nc(N/N=C/c2ccc([N+](=O)[O-])o2)n1
-2.6,CCc1n[nH]c(=O)n1Cn1c(CC)n[nH]c1=O
-6.0,COc1ccc(CN2C(=NC(=O)c3ccccc3)SC3CS(=O)(=O)CC32)cc1OC (centres undefined)
-21.5,CN(Cc1ccccc1)C(=O)COc1ccc(Br)cc1Cl
4.7,CCCCSc1nc2ccccc2n1CC(=O)O
-7.6,Cc1occc1-c1nnc(SCC(=O)N2CCN(c3ccccc3)CC2)n1C
-9.5,S=c1[nH]nc(-c2cccnc2)n1/N=C/c1ccco1
-1.3,CC(C)(C)NS(=O)(=O)c1ccc(CCC(=O)O)cc1
-4.8,CS(=O)(=O)CCC(C(=O)OCC(=O)c1ccc(Cl)cc1)N1C(=O)c2ccccc2C1=O (centres undefined)
8.4,COc1cc(OC)c(NS(=O)(=O)c2coc(C(N)=O)c2)cc1Cl
-23.4,COc1cccc(C(c2nnnn2CS(=O)(=O)c2ccc(C)cc2)N2CCN(C)CC2)c1OC (centres undefined)

(list continues)
OX1R antag,mol
-3.4,COc1ccc(CCNC(=O)COC(=O)c2cccs2)cc1OC
-11.6,O=C1CC(C(F)(F)C(F)(F)C(F)(F)C(F)F)=Nc2ccccc2N1
-4.2,COc1ccc(/C=C/C2=CC(C)(C)NC(=S)N2)cc1
-18.4,c1cc(C2OCCN2CC2COC3(CCCC3)O2)ccn1 (centres undefined)
-16.2,CCN1C(=NCCCCO)N[C@@H](c2cccc(C(F)(F)F)c2)C(C(=O)OC)=C1C
-0.4,O=C(COC(=O)c1ccc(O)cc1)NCCC1=CCCCC1
-20.3,Cc1ccccc1-n1nc2c(c1NC(=O)c1c(-c3ccccc3Cl)noc1C)CSC2
-30.3,Cc1ccc(-n2nc3c(N4CCC(C(=O)NCc5ccccc5C)CC4)nnc(C)c3c2C)cc1
-30.1,COc1ccc(/C=C/C2=NN(Cc3ccccc3)C(=O)CC2)cc1
-36.5,Cc1cccc(OCc2nnc(SCC(=O)N3CCN(c4ccccc4)CC3)o2)c1C
-9.8,CCN1C(=O)c2ccccc2S(=O)(=O)c2ccc(C(=O)NC(C)C)cc21
-7.2,COC(=O)c1ccc(COC(=O)c2ccc(-n3cnnn3)cc2)o1
-20.4,Cc1ccc(CN2CCC(CNC(=O)c3ccc(NC(=O)C4=CSCCO4)cc3)CC2)cc1
-12.8,COCCCn1c(SCC(=O)NC2CCCC2)nnc1-c1ccccc1
-8.5,COc1ccc(S(=O)(=O)CCC(=O)N2CCN(c3ccc(C(C)=O)cc3)CC2)cc1
-23.2,COc1cc(/C=C2\SC(=S)N(NS(=O)(=O)c3ccc(C)cc3)C2=O)cc(OC)c1OC
-14.8,COc1ccccc1N1CCN(C(=O)c2ccc(NC(C)=O)cc2)CC1
-0.4,Cc1ccc(CCN2CC(C(=O)NCCCN3CCOCC3)CC2=O)cc1 (centres undefined)
-33.7,Cc1ccc(NC(=O)CN(C)CC(=O)NC2CCCc3ccccc32)cc1 (centres undefined)
-8.5,CCCCn1c(N)c(Sc2ccc(C)cc2)c(=O)[nH]c1=O
-19.0,O=C1CNC(=S)N1C(CO)c1ccccc1 (centres undefined)
-24.3,Cc1cc(C(=O)Cn2nnc3ccccc3c2=O)c(C)n1Cc1cccs1
-13.8,COc1ccc(CCNC(=O)c2cnc3scc(C)n3c2=O)cc1OC
-25.2,CCOc1c(Cl)cc(CNCc2ccccn2)cc1OC
-9.1,COc1cc([N+](=O)[O-])ccc1NC(=O)c1cccc(NC(=O)C(C)C)c1

Later entries:
OX1R antag,mol
-19.8,CCc1c(C)nc2c(-c3ccccc3)c(C)nn2c1Nc1ccc(NC(C)=O)cc1
1.5,O=C(N/N=C/c1cccc(C(F)(F)F)c1)c1ccc(O)cc1
-16.9,CC1CCCN(C(=O)c2cccc(S(=O)(=O)N3CCCc4ccccc43)c2)C1 (centres undefined)
-32.2,CCC(C)(C)n1nnnc1C(c1ccc2ncccc2c1)N1CCN2CCCC2C1 (centres undefined)
-17.8,CC(=O)C1=C(C)NC(C)=C(C(C)=O)C1c1cn(-c2ccccc2)nc1-c1cccs1
-28.4,Cc1cc(C)c2c(=O)[nH]c(SCC(=O)Nc3ccccc3)nc2n1
11.5,CC(Oc1ccccc1)C(=O)Nc1ccc(S(=O)(=O)N2CCN(C)CC2)cc1 (centres undefined)
-12.8,Cc1cc(C)n2cc(-c3ccc(Cl)cc3)c(C(=O)O)c2n1

Fetched one by one from above (two):
OX1R antag,mol
-12.8,Cc1cc(C)n2cc(-c3ccc(Cl)cc3)c(C(=O)O)c2n1
-28.4,Cc1cc(C)c2c(=O)[nH]c(SCC(=O)Nc3ccccc3)nc2n1

Part of the list above in order of number of heavy atoms, high to low:
OX1R antag,mol
-32.2,CCC(C)(C)n1nnnc1C(c1ccc2ncccc2c1)N1CCN2CCCC2C1 (centres undefined)
-16.9,CC1CCCN(C(=O)c2cccc(S(=O)(=O)N3CCCc4ccccc43)c2)C1 (centres undefined)
-9.1,COc1cc([N+](=O)[O-])ccc1NC(=O)c1cccc(NC(=O)C(C)C)c1
-28.4,Cc1cc(C)c2c(=O)[nH]c(SCC(=O)Nc3ccccc3)nc2n1
1.5,O=C(N/N=C/c1cccc(C(F)(F)F)c1)c1ccc(O)cc1
-12.8,Cc1cc(C)n2cc(-c3ccc(Cl)cc3)c(C(=O)O)c2n1

An excerpt taken from the entries so far, for reference:
OX1R antag,mol
11.5,CC(Oc1ccccc1)C(=O)Nc1ccc(S(=O)(=O)N2CCN(C)CC2)cc1 (centres undefined)
-12.8,Cc1cc(C)n2cc(-c3ccc(Cl)cc3)c(C(=O)O)c2n1

Assay outcomes deposited in PubChem BioAssay by The Scripps Research Institute Molecular Screening Center.

Not all compounds are listed; most or all hits stand in other tables.
